VDR inhibitor: inhibitors of human vitamin D receptor; 0.93% of 400,000 active; VDR-SRC2-3 peptide fluorescence polarization, 2 h; P11473; Potency, µM, inactives show max response, negative = inhibition, actives largely listed as inhibitors; active = well fitted inhibition curve with a large enough effect; inconclusive = small, poorly fitted or top-dose-only effect, or another doubt; inactive = no such curve, though single readings can be large or run the other way; also: series mostly up to about 120 µM
Target sequence (P11473 whole entry, looked up): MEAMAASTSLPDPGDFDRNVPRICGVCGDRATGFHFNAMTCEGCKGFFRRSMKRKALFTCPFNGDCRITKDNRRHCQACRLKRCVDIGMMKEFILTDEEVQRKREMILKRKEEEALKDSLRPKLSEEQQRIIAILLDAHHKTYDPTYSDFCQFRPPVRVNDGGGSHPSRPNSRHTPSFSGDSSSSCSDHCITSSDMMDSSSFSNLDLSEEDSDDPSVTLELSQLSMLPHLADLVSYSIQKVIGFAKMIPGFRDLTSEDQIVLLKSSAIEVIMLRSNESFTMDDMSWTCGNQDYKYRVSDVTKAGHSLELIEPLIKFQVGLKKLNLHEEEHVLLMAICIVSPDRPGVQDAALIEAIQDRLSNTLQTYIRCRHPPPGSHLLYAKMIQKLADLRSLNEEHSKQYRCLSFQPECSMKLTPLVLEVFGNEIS
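Compounds are added to VDR with labelled SRC2-3 coactivator peptide and held 2 h at room temperature. Inhibition of the VDR–peptide interaction is then read as a change in fluorescence polarization.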
An asterisk follows results filed as active; ? = inconclusive; & = joins results of further samples. % is scaled to controls: 0 for no effect and ±100 for the full control effect; potency is read from the fitted curve at half-maximal effect.

A first look:
cpd	VDR inhibitor	SMILES
1	50.1µM*	COc1ccc(CN2C(=O)/C(=C/c3ccncc3)SC2=S)cc1
2	0.9%	O=C(NCc1cccnc1)C1CCN(Cc2cc3ccccc3n2Cc2cccc(Cl)c2)CC1
3	-11.3%	CCC(=O)c1ccc(OCC(=O)N2CCN(c3ccccn3)CC2)cc1
4	-8.0%	CN1CCc2c(sc3c2C(=O)NC(c2ccc4c(c2)OCO4)N3)C1 (centres undefined)

This part in full, from the first entry:
cpd	VDR inhibitor	SMILES
1	50.1µM*	COc1ccc(CN2C(=O)/C(=C/c3ccncc3)SC2=S)cc1
2	0.9%	O=C(NCc1cccnc1)C1CCN(Cc2cc3ccccc3n2Cc2cccc(Cl)c2)CC1
3	-11.3%	CCC(=O)c1ccc(OCC(=O)N2CCN(c3ccccn3)CC2)cc1
4	-8.0%	CN1CCc2c(sc3c2C(=O)NC(c2ccc4c(c2)OCO4)N3)C1 (centres undefined)
5	7.4%	CCN(Cc1ccccc1)S(=O)(=O)c1ccc(C(=O)Nc2nnc(C)o2)cc1
6	6.5%	COCCCNC(=O)c1nn(-c2ccc(C)cc2)c(=O)n(C)c1=O
7	-14.9%	Cc1cc(C)n(CC(=O)N2N=C(C(F)F)CC2(O)C(F)F)n1 (centres undefined)
8	5.9%	CNC(=O)c1ncoc1-c1ccc(Cl)cc1
9	16.9%	O=C(Nc1ccc(S(=O)(=O)Nc2ccccc2)cc1)C1CC1
10	-11.2%	N=C1C(=O)OCC1c1ccccc1NC(=O)Nc1ccccc1 (centres undefined)
11	6.1%	COc1cccc(/C=N/NC(=O)c2cc(-c3cccn3C)n[nH]2)c1O
12	0.6%	COc1cc(/C=N/NC(=O)Nc2ccccc2)ccc1OCCOc1ccccc1C
13	-1.8%	COc1ccc(CNC(=O)CCNS(=O)(=O)c2ccc(Cl)cc2)cc1
14	-8.8%	CN(Cc1ccccc1)C(=O)COC(=O)c1ccc(-n2cnnn2)cc1
15	7.1%	C/C=C/c1ccc(OCCCNC)c(OC)c1
16	16.1%	CCc1ccccc1OCCCN1CCCC1
17	-18.6%	CCOC(=O)C1CCN(c2nc(-c3ccc(C)cc3)nc3ccccc23)CC1
18	-11.1%	CSc1cccc(CN2CCC(CCC(=O)NC3CC3)CC2)c1
19	-3.9%	CCOC(=O)Cc1csc(/N=C/c2c(O)n(-c3ccc(C)cc3C)c(=O)c3ccccc23)n1
20	14.6%	CC(Sc1nnc(NC(=O)c2cc3ccccc3oc2=O)s1)c1ccccc1 (centres undefined)
21	-25.5%	Cc1onc(-c2ccccc2)c1C(=O)NC(=S)NNC(=O)c1ccco1
22	-0.3%	O=C(COC(=O)c1cncc(Br)c1)NCC12CC3CC(CC(C3)C1)C2
23	-19.6%	COC(=O)C1=C(C)NC(C)=C(C(=O)OCCNCc2ccccc2)C1c1cccc([N+](=O)[O-])c1 (centres undefined)
24	9.4%	CCOc1cc(C(=O)Nc2ccc3c4c(cccc24)C(=O)N3CC)cc(OCC)c1OCC
25	-14.6%	O=C(NCCCN1CCCC1=O)c1cccc(S(=O)(=O)Nc2ccccc2Cl)c1
26	-5.1%	CNc1nc2[nH]c(=O)c3c(c2s1)OC(N)=C(C#N)C3c1cccc(F)c1 (centres undefined)
27	0.7%&0.0%&2.0%	OCCN1CCN(CCCN2c3ccccc3C=Cc3ccccc32)CC1
28	11.4%	COc1cccc(-c2c(NC(=O)c3ccco3)n(-c3ccc(C)cc3)nc(C)c2=O)c1
29	7.7%	COc1ccc(-n2nnc(-c3nsc(NC(=O)c4ccc(C)c(C)c4)n3)c2C)cc1Cl
30	-15.0%	CCOC(=O)C(NC(=O)CC)(Nc1ccc(S(=O)(=O)Nc2onc(C)c2C)cc1)C(F)(F)F (centres undefined)
31	9.1%	O=C(NNS(=O)(=O)c1ccccc1)c1ccncc1
32	-14.7%	Cc1nn(-c2cc(N3CCCC3)ccc2[N+](=O)[O-])c(=O)c2ccccc12
33	-16.8%	CCOC(=O)C1C(=O)C=C(c2ccc(C)cc2)CC1c1ccc([N+](=O)[O-])cc1 (centres undefined)
34	-22.3%	Brc1ccc(OCc2ccccc2)c(CNCC2CCCO2)c1 (centres undefined)
35	5.4%	Cc1ccc(-n2nc(C(=O)NCc3ccc(F)cc3Cl)c3c4ccccc4n(C)c3c2=O)cc1
36	15.3%	CCN(c1ccccc1)S(=O)(=O)c1ccc(NC(=O)c2ccco2)cc1
37	-16.0%	COc1cccc(CC2(CO)CCCN(Cc3cn(C)c4ccccc34)C2)c1 (centres undefined)
38	-26.6%	CSc1ccc(C=NNc2ccc(S(=O)(=O)Nc3ccccc3C(=O)O)cc2[N+](=O)[O-])cc1
39	1.2%	C#CCOCCOCCOCCNc1nc(N2CCN(C(=O)[C@H](CCC(=O)O)n3cc(CN)nn3)CC2)nc(N2CCN(C(=O)[C@H](CCC(=O)O)n3cc(CN)nn3)CC2)n1
40	-0.3%	CC(C)C(=O)Nc1nnc(SCC(=O)N2c3ccccc3CC2C)s1 (centres undefined)
41	-0.9%	Cc1cc(N2CCOCC2)nc2ccc(NC(=O)CCC(=O)N3CCCCC3)cc12
42	1.7%	CCOc1cc2[nH]c(=S)n(C3CC3)c(=O)c2cc1OCC
43	-14.8%	O=C(COc1ccccc1Br)NC1CC1
44	2.8%	CCOC(=O)c1c(-c2ccccc2)oc2ccc(NS(=O)(=O)c3cc(C)c(C)cc3C)cc12
45	15.1%	NC(=O)CSc1nnc(-c2cnccn2)n1-c1ccccc1
46	-6.4%	Cc1ccccc1-n1nc2c(c1NC(=O)CCCl)CSC2
47	8.5%	COc1ccc(N2C(=O)/C(=C/c3cccnc3)NC2=S)cc1
48	-1.1%	CC(C)Cc1nnc(NC(=O)c2ccncc2)s1
49	-5.8%	CCOC(=O)CC1(NC(=O)c2cc(COc3cccc(OC)c3)on2)CCCCC1
50	-10.4%	O=C(Cn1cc([N+](=O)[O-])cn1)Nc1cccnc1
51	0.4%	Cc1cccc(NC(=O)C(NS(=O)(=O)c2ccc3c(c2)oc(=O)n3C)C(C)C)c1 (centres undefined)
52	26.5%	O=C(CSc1nc2ccc(Cl)cc2[nH]1)NC1CCCc2ccccc21 (centres undefined)
53	-1.2%	Cc1ccc(C)n1-c1ccc(-n2cnnn2)cc1
54	8.2%	CCOc1ccc(Nc2nn(-c3ccc(OC(F)(F)F)cc3)nc2C(C)=O)cc1
55	-17.7%	Cc1nc(NC(=O)COC(=O)c2ccc(S(=O)(=O)N3CCc4ccccc4C3)cc2)c(Cl)cc1Cl
56	5.5%	CCC(Oc1ccccc1)C(=O)Nc1ccc(O)c(-c2nc3cc(C)ccc3o2)c1 (centres undefined)
57	-6.9%	CCc1c(C)sc2nc(C(C)C)nc(SCC(=O)N3CCc4ccccc4C3)c12
58	-9.9%	CC(C)OCCCNC(=O)c1ccc(C2SCC(=O)N2Cc2ccco2)cc1 (centres undefined)
59	-4.9%	O=C(CCSCc1cccc(Cl)c1)NCc1ccc(F)cc1Cl
60	-2.8%	COCCCNC(=O)CSc1nc2ccccc2c(=O)n1CCC(=O)NCCc1ccc(OC)c(OC)c1

(more compounds)
cpd	VDR inhibitor	SMILES
61	?	O=C1N=C(N2CCCC2C(=O)O)S/C1=C\c1ccco1 (centres undefined)
62	-17.7%	C[C@H](NC(=O)N1CCn2c1nc1ccccc12)C(=O)NCc1ccc2c(c1)OCO2
63	16.8%	COc1ccccc1N1CCN(C(c2cccs2)C(C)NC(=O)c2ccco2)CC1 (centres undefined)
64	-8.2%	CN(C)c1ccc(C(C#N)c2ccc(Cl)cc2)nn1 (centres undefined)
65	?	CCN(CC)c1ccc(C=C2C(=O)OC(C)(C(C)(C)C)OC2=O)cc1 (centres undefined)
66	-12.7%	O=C(/C=C/c1cccc([N+](=O)[O-])c1)NCCSCc1ccccc1Cl
67	-10.5%	CC1CN(C2CCN(C(=O)c3ccccc3Cl)CC2)CC(C)O1 (centres undefined)
68	15.2%	CC(C)Sc1ncnc2c1oc1ccccc12
69	3.3%	CC(C)CCNc1nc(N)c([N+](=O)[O-])c(NCC2CCCO2)n1 (centres undefined)
70	3.0%	N#CCn1c(CN2CCCC2)nc2ccccc2c1=O
71	12.1%	CC(C)CC1NC(=O)C(CCCN)NC(=O)C(C(C)C)NC(=O)C2CCCN2C(=O)C(Cc2ccccc2)NC(=O)C(CC(C)C)NC(=O)C(CCCN)NC(=O)C(C(C)C)NC(=O)C2CCCN2C(=O)C(Cc2ccccc2)NC1=O (centres undefined)
72	-21.1%	CC(C)(C)OC(=O)NCCCC[C@H](NC(=O)c1nc[nH]c1C(=O)N1CCN(c2ccccc2)CC1)C(=O)OC(C)(C)C
73	-3.4%&-0.4%	CCCCCC1OC1C/C=C\C/C=C\C/C=C\CCCC(=O)O (centres undefined)
74	1.7%	Cc1ccc(OCCCCn2nnc3sc4c(c3c2=O)CCCC4)cc1
75	-18.3%	COc1ccc(-c2cc(C(F)(F)F)n3nc(C(=O)NCc4ccco4)cc3n2)cc1
76	-12.4%	Cc1nc(NCc2cccnc2)c2c3c(sc2n1)CCCC3
77	-11.3%	Cc1cccc(C(CC(=O)O)NC(=O)C(F)(F)F)c1 (centres undefined)
78	-23.7%	C=CCOc1ccccc1CNCc1ccc(F)cc1
79	9.4%	C=CCNC(=O)CCCOc1cccc(C)c1
80	-1.7%	CCn1c(CSCc2ccc(F)cc2)nnc1SCC(=O)NCc1ccccc1
81	-2.1%	COc1ccc(C(=O)NCc2nnc(SCC(=O)N3CCc4ccccc43)n2CCc2ccccc2)cc1
82	-3.4%	O=C(NC(=S)Nc1ccc(N2CCOCC2)c(Cl)c1)c1cccs1
83	-3.6%	Cc1ccccc1-c1nc2ccc(Cl)cc2c(=O)n1O
84	1.3%	CC1=N/C(=C/c2ccc([N+](=O)[O-])cc2)C(=O)N1c1ccc(Cl)cc1Cl
85	9.3%	Cc1cc(=O)n(CC(=O)Nc2ccc([N+](=O)[O-])cc2)c(-n2nc(C)cc2C)n1
86	12.0%	C[C@H](CO)N1C[C@H](C)[C@@H](CN(C)C(=O)Nc2ccc(C(F)(F)F)cc2)Oc2ccc(NS(=O)(=O)c3ccccc3)cc2C1=O
87	21.6%	COCCN(C(=O)CNC(=O)c1ccco1)C(C(=O)NC1CCCC1)c1ccc(F)cc1 (centres undefined)
88	-3.0%	CCN(CC)c1cc(C)c2cc(NC(=O)c3ccc(Br)o3)ccc2n1
89	-13.8%	O=C(CN1C(=O)NC2(CCCC2)C1=O)N1CCN(S(=O)(=O)c2ccccc2)CC1
90	9.7%	CCN(CC)S(=O)(=O)c1ccc2c(c1)c(=O)c(C(=O)N1CCOCC1)cn2C
91	-8.9%	COc1cc(S(=O)(=O)N2CCN(c3ccccn3)CC2)ccc1Br
92	-4.2%	COc1ccc(CN(C(=O)c2ccco2)c2ccc(C)cc2)cc1OC
93	-5.9%	CCS(=O)(=O)N1CCCC(C(=O)NCCN(C)Cc2ccccc2)C1 (centres undefined)
94	-10.4%	CN(Cc1ccccc1)C(=O)c1ccc(NC(=O)Cc2cccc(NC(=O)C3CCN(C(=O)C4CCCCC4)CC3)c2)cc1
95	10.8%	CCOC(=O)c1c(C)sc(-c2c(-c3cc(C)ccc3C)[nH]c3c2c(=O)[nH]c(=O)n3C)c1O
96	6.5%	O=C(COc1ccc(Cl)cc1)N/N=C/c1cccc2cccnc12
97	-13.7%	O=C(Nc1nnc(/C=C/c2ccccc2)s1)c1ccco1
98	5.7%	CCC12CN3CC(CC)(CN(C1)C3c1ccccc1Cl)C2O (centres undefined)
99	-17.5%	COc1ccc(-c2cc(C(=O)NCc3cn(C)nc3C)c3ccccc3n2)cc1OC
100	8.5%	Cc1ccc(C(=O)CSc2nc3cc(C(=O)NC4CCCC4)ccc3c(=O)n2CC2CCCO2)cc1 (centres undefined)
101	14.5%	CCCc1nc(-c2ccccc2)c(-c2ccc(OC)c(OC)c2)c(=O)[nH]1
102	-11.6%	CCC(C)NCCOCCOc1ccc(Br)cc1 (centres undefined)
103	-0.1%	CCC(C)[C@H](NC(=O)Nc1ccccc1F)C(=O)OC (some centres undefined)
104	-21.5%	CC1(c2ccccc2)NC(=O)N(CC(=O)NCCN2C(=O)S/C(=C\c3cccnc3)C2=O)C1=O (centres undefined)
105	14.7%	CCOc1cc(C(=O)N/N=C/C2CC=CCC2)cc(OCC)c1OCC (centres undefined)
106	0.0%	O=C(c1ccc(-c2cc(O)c3ncccc3c2)cc1)N1CCNCC1
107	-2.2%	CCOC(=O)CN(C(=O)CSc1nnc(-c2ccc(OC)c(OC)c2)o1)c1ccc(F)cc1
108	-21.2%	COc1ccc(C=NNC(=S)NC23CC4CC(CC(C4)C2)C3)cc1OC
109	4.3%	CC1CN(C(=O)c2c([N+](=O)[O-])cnn2C)CC(C)O1 (centres undefined)
110	12.7%	CCCc1c(C)nc(N2CCN(c3ccccc3OC)CC2)[nH]c1=O
111	0.1%	CCn1c(SCC(=O)N2CC(C)OC(C)C2)nc2c([nH]c3ccccc32)c1=O (centres undefined)
112	-1.4%	O=C(CCC(=O)N1CCOc2ccccc21)NCc1ccccn1
113	-12.6%	CC(/C=C1\SC(=O)N(CCCC(=O)O)C1=O)=C\c1ccccc1
114	10.8%	COc1ccc(N2CCN(C(CNC(=O)CC(C)C)c3ccc4c(c3)OCO4)CC2)cc1 (centres undefined)
115	1.5%	COc1cc2c(cc1OC)C(C(=O)NCC1COc3ccccc3O1)C(c1cccnc1)N(C)C2=O (centres undefined)
116	-16.3%	CC1CN(C(=O)c2cccc(Oc3ccccc3)c2)CC(C)O1 (centres undefined)
117	-5.4%	CCC(C)N1C(=O)S/C(=C/c2ccc(Sc3nc4ccccc4[nH]3)o2)C1=O (centres undefined)
118	-6.0%	Cc1cccn2c(=O)nc(SCC(=O)c3ccccc3)nc12
119	-13.9%	Clc1ccc(-n2nnnc2CN2CCOCC2)cc1

In another format: five of the compounds above.
item | SMILES | VDR inhibitor
108 | COc1ccc(C=NNC(=S)NC23CC4CC(CC(C4)C2)C3)cc1OC | -21.2%
109 | CC1CN(C(=O)c2c([N+](=O)[O-])cnn2C)CC(C)O1 (centres undefined) | 4.3%
110 | CCCc1c(C)nc(N2CCN(c3ccccc3OC)CC2)[nH]c1=O | 12.7%
111 | CCn1c(SCC(=O)N2CC(C)OC(C)C2)nc2c([nH]c3ccccc32)c1=O (centres undefined) | 0.1%
112 | O=C(CCC(=O)N1CCOc2ccccc21)NCc1ccccn1 | -1.4%

Not all compounds are listed; count on the stated rates, not on these rows.
